Screening data from PubChem.
VDR inhibitor: blocks the human vitamin D receptor; VDR-SRC2-3 peptide fluorescence polarization, 2 h; Potency, µM, inactives show max response, negative = inhibition, usual class: inhibitors; hit rate 0.93% among 400,000; P11473; active = well fitted inhibition curve with a large enough effect; inconclusive = small, poorly fitted or top-dose-only effect, or another doubt; inactive = no such curve, though single readings can be large or run the other way; also: series mostly up to about 120 µM
Target sequence (P11473 whole entry, looked up): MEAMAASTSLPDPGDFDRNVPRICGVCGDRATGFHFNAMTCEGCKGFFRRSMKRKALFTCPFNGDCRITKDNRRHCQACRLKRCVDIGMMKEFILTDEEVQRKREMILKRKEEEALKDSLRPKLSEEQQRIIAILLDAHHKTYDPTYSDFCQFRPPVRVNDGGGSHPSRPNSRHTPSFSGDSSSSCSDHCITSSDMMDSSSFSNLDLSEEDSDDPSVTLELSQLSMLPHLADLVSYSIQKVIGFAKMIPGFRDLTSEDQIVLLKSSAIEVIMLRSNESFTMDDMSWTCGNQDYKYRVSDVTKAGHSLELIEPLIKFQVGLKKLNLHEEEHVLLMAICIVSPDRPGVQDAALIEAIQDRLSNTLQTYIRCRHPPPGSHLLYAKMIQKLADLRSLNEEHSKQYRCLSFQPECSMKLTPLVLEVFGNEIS
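Fluorescence polarization assay of small-molecule disruption of VDR binding to coregulator peptide SRC2-3. Compounds and controls pin-transferred, then read after 2 h incubation at ambient room temperature.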
Active calls of the source: *; ? = inconclusive; & = joins results of further samples; [ ] = remark or other dose. % is scaled to controls: 0 for no effect and ±100 for the full control effect; potency is read from the fitted curve at half-maximal effect. The list is partial; rates above refer to the full screens.

item	Structure	VDR inhibitor
1	CCCCN(CCCC)C(=O)c1ccccc1NC(=O)CN1C(=O)c2ccccc2C1=O	16.1%
2	CN=c1scc(C)n1/N=C/c1ccc(O)cc1	3.9%
3	CCn1c(C)nc2cc(C(=O)N/N=C/c3ccccc3)ccc21	-13.3%
4	COc1cccc(-n2c(=O)c3c(C)c(C(=O)N(C)C)sc3n(CC(=O)Nc3ccc(C)cc3Cl)c2=O)c1	19.6%
5	CC1CCCN(C(=O)CCS(=O)(=O)c2ccc3c(c2)n(C)c(=O)c(=O)n3C)C1 (stereo not given)	-11.8%
6	CCOC(=O)C1(CCCc2ccccc2)CCN(C2CCSCC2)CC1	0.9%
7	CN1CCN(c2ncncc2-c2ccc(N(C)C)cc2)CC1	-7.0%
8	COc1ccc(Br)cc1S(=O)(=O)NCc1ccccc1	4.3%
9	CC(=O)N1CCN(C(=O)COC(=O)/C=C/c2ccccc2[N+](=O)[O-])CC1	-1.9%
10	O=C(CCSc1ccc(Cl)cc1)NC1CCCC1	-16.4%
11	COc1cccc(-c2ccc(C#N)c(SCC(=O)NCCc3ccc(Cl)cc3)n2)c1	-23.8%
12	CCCCCCOC(=O)C1=C(C)NC(=O)NC1c1ccc2c(c1)OCO2 (stereo not given)	-9.2%
13	O=C(NCc1ccco1)C1CCCN1C(=O)Nc1cccc(Cl)c1 (stereo not given)	-2.5%
14	O=S1(=O)NC(=NCc2ccccc2)c2ccccc21	-4.2%
15	Cc1cc(Cl)ccc1OCCCC(=O)NC1CCN(C)CC1	2.8%
16	C=Cc1ccc(CSc2nc(-c3ccc(Cl)cc3)nc3c2Cc2c(CO)cnc(C)c2O3)cc1	2.6%
17	CCCCCC1C(=O)N2C=C(c3ccccc3)c3ccccc3N2C1=O (stereo not given)	22.4µM*
18	Cc1ccc(C(C)C)c(OCCn2cc(C(=O)c3ccco3)c3ccccc32)c1	3.0%
19	CCC(CC)NC(=O)c1n[nH]c(=O)c2ccccc12	7.5%
20	CC(=O)c1ccc(NC(=O)c2cc(C3CC3)nc3c2c(C)nn3-c2ccc(C)cc2)cc1	15.5%
21	CC(C)C1Nc2c(C(=O)O)cccc2C(Nc2ccccc2C(=O)O)C1(C)C (stereo not given)	5.3%
22	CCCCN(C(=O)c1cccc(-n2cccc2)c1)c1c(N)n(CCC)c(=O)[nH]c1=O	-2.4%
23	CCCn1c(=O)[nH]c(=O)c2[nH]cnc21	-0.4%&-12.0%&7.7%
24	Cc1ccc(-c2nnc(Nc3ccccc3)c3ccccc23)cc1S(=O)(=O)N1CCOCC1	-9.1%
25	O=C(O)Cc1coc2ccc3ccccc3c12	-1.0%
26	CC(=O)NCc1ccc(S(=O)(=O)NC2CCN(Cc3ccccc3)CC2)cc1	3.0%
27	CC1O[C@@H](O[C@H](C)CC[C@@H](C)O)C(O)C[C@H]1O (stereo not given in full)	7.7%
28	COc1ccc(CNc2ccc3cn[nH]c3c2)c(OC)c1OC	4.6%
29	CN(CCC#N)C(=O)COC(=O)c1ccc2c(c1)C(=O)N(C1CCCCC1)C2=O	-9.5%
30	COc1ccc(OCC2c3cc(OC)c(OC)cc3CCN2C(=O)c2ccc(F)cc2)cc1 (stereo not given)	-2.8%

Structures from the list above containing an aryl methoxy group:
item	Structure	VDR inhibitor
4	COc1cccc(-n2c(=O)c3c(C)c(C(=O)N(C)C)sc3n(CC(=O)Nc3ccc(C)cc3Cl)c2=O)c1	19.6%
8	COc1ccc(Br)cc1S(=O)(=O)NCc1ccccc1	4.3%
11	COc1cccc(-c2ccc(C#N)c(SCC(=O)NCCc3ccc(Cl)cc3)n2)c1	-23.8%
28	COc1ccc(CNc2ccc3cn[nH]c3c2)c(OC)c1OC	4.6%
30	COc1ccc(OCC2c3cc(OC)c(OC)cc3CCN2C(=O)c2ccc(F)cc2)cc1 (stereo not given)	-2.8%

New compounds follow:
item	Structure	VDR inhibitor
31	O=C(CSc1nnc(-c2ccccc2Cl)o1)Nc1ccc2c(c1)OCCO2	38.3%[activator]
32	CCOc1cc(N2CCOCC2)c(OCC)cc1NC(=O)Cc1ccccc1	-4.1%
33	CCCC(C)NC(=O)C1CCN(S(=O)(=O)c2ccccc2)CC1 (stereo not given)	1.8%
34	Cc1ccc(C)c(S(=O)(=O)NCc2ccc(C(=O)N3CCOCC3)cc2)c1	6.4%
35	C=CCn1c(CSc2nc3ccccc3s2)nnc1SCC(=O)NCc1ccccc1	3.8%
36	O=C(CN1CCN(Cc2ccccc2)CC1)c1c[nH]c2ccccc12	-8.5%
37	O=C(/C=C/c1ccc([N+](=O)[O-])cc1)c1ccco1	-9.5%
38	Cc1cccc(CS(=O)(=O)Cc2ccc(C(=O)NCc3cccs3)o2)c1	-23.8%
39	O=C1c2ccccc2C(Nc2ccc(F)c(Cl)c2)N1c1ccccn1 (stereo not given)	-26.2%
40	Cc1csc(SCC(=O)Nc2sccc2C#N)n1	2.8%
41	Cc1ccc(NC(=O)CSc2nc(-c3ccco3)nc3cc(=O)[nH]n23)cc1C	1.7%
42	c1c2c(cc3sc(N4CCCCC4)nc13)OCO2	4.2%
43	COc1ccc(CCNC(=O)c2cc3c(=O)n4ccccc4nc3n(C3CCCCC3)c2=N)cc1	-2.8%
44	COC(=O)c1cc(S(=O)(=O)NCCN2CCN(c3ccccc3F)CC2)c[nH]1	-19.8%
45	COc1ccc(-n2c(SCC(=O)NCc3ccccc3)nc3n[nH]c(C)c3c2=N)cc1	8.5%
46	O=C(N/C(=C/c1cccs1)C(=O)N1CCOCC1)c1ccco1	13.9%
47	Cn1c(=O)c2c(nc3n2CCCN3CCc2ccccc2)n(C)c1=O	13.0%
48	O=C(CN(Cc1ccc(F)cc1)C(=O)c1csnn1)NCc1ccc2c(c1)OCO2	-14.8%
49	Cc1oc(-c2ccc(Cl)cc2)nc1CSCC(=O)NC1CCN(Cc2ccccc2)CC1	13.3%
50	COc1ccc(CN(C)C(=O)CCCNC(=O)c2ccc(Cl)cc2)cc1	-13.0%
51	CC(=O)Oc1cc2c3c(c1)/C(=C1/SC(=S)NC1=O)C(=O)N3C(C)(C)C=C2C	?
52	O=C(COc1ccc(Cl)cc1)Nc1cc(S(=O)(=O)N2CCCCC2)ccc1N1CCCCC1	-13.4%
53	CCn1nc(C)c(CN2CCc3c([nH]c4ccccc34)C2c2ccc(F)c(OC)c2)c1C (stereo not given)	17.4%
54	CCOc1ccc(NS(=O)(=O)c2ccc(C)c(C(=O)NCCCn3ccnc3)c2)cc1	-2.9%
55	CCCCNc1ccc(C(CC(N)=O)NC(=O)Cc2cccc3ccccc23)cc1[N+](=O)[O-] (stereo not given)	-4.2%
56	Cc1ccc(S(=O)(=O)Nc2cccnc2)c(C)c1C	-8.3%
57	CC(C(=O)NCC1CCCO1)N(C(=O)c1snc(C(N)=O)c1N)c1cccc(F)c1 (stereo not given)	14.1%
58	O=C(NCC(c1ccc(F)cc1)N1CCOCC1)c1ccccc1F (stereo not given)	-3.4%
59	CC1Cc2nc(SCC(=O)NCc3ccco3)n(-c3ccccc3)c(=O)c2S1 (stereo not given)	-22.8%
60	Cc1cc2sc(C(=O)O)c(C)c2s1	19.9%
61	COc1ccc(/C=N/n2cc(-c3ccccc3)nc2N)cc1	0.2%
62	c1ccc2[nH]c(SCC3CCCCO3)nc2c1 (stereo not given)	-12.5%
63	CCc1ccc(C(=O)/C=C/NCc2ccc(F)cc2)cc1	-19.0%
64	Cc1nc2ccccc2cc1C(=O)NCc1ccccc1	-15.3%
65	C[C@@H]1COC(=O)[C@H](Cc2ccc(F)cc2)C/C=C\C[C@@H](CC(=O)NCCO)C(=O)N1	-7.4%
66	Cc1c(C(N)=O)cc([N+](=O)[O-])cc1[N+](=O)[O-]	3.9%&-2.0%
67	CC(NC(=O)NC(=O)c1ccc(F)cc1)C1CC1 (stereo not given)	10.2%
68	Cc1cccc(CSc2ncc(CO)n2Cc2ccc(F)cc2)c1	7.5%
69	CC(NC(=O)N(Cc1ccccc1)Cc1ccc2c(c1)OCO2)(C(F)(F)F)C(F)(F)F	9.2%
70	COc1ccc(N2CCN(C3C(=O)c4ccccc4N3C(C)=O)CC2)cc1 (stereo not given)	10.0%
71	COc1cc(OC)cc(C(=O)N[C@H](C(=O)NCCc2ccc(S(N)(=O)=O)cc2)C(C)C)c1	-7.7%
72	C/C(=N\NC(=O)c1nnn(-c2nonc2N)c1CSc1ccccc1)c1ccc2c(c1)OCO2	-10.4%
73	C(#CCN1CCOCC1)COC(c1ccccc1)c1ccccc1	?
74	COc1ccc(-n2c(SCC(=O)Nc3cc(C)on3)nc3c(c2=O)SCC3)cc1	11.0%
75	COc1ccc(-c2ccnc3c(C(=O)O)cnn23)cc1	9.7%
76	CC(OC(=O)c1ccc(-n2cnnn2)cc1)C(=O)Nc1ccccc1[N+](=O)[O-] (stereo not given)	-12.7%
77	CCN(CC)CCNC(=O)c1ccc(CSc2nc3ccncc3n2Cc2cccc(F)c2)cc1	8.7%
78	Cc1cccc(NC(=O)CSc2ncnc3sc(C)c(C)c23)n1	30.3%[activator]
79	Cc1ccc(S(=O)(=O)N2CCN(CCOc3c(Cl)cccc3Cl)CC2)cc1C	11.6%
80	O=C(CNCc1ccc(F)cc1)Nc1ccccc1[N+](=O)[O-]	-6.1%
81	Cc1ccc(C)c(N2CCN(S(=O)(=O)c3ccc4c(c3)NC(=O)CO4)CC2)c1	-19.6%
82	COc1ccc2cc(C(=O)C3CCCN(C(=O)/C=C/c4ccccn4)C3)ccc2c1 (stereo not given)	-3.2%
83	CCOCCCNc1ccc(-c2ccccc2)nn1	-3.0%
84	CCc1nnc(NS(=O)(=O)c2ccc(N=Cc3c(C)[nH]n(-c4ccc(C)cc4)c3=O)cc2)s1	-0.5%
85	O=C(Nc1ccccc1C(=O)OCc1nnc(-c2ccccc2)o1)c1ccco1	2.1%
86	O=C(NC1C=CS(=O)(=O)C1)c1ccccc1 (stereo not given)	-3.3%
87	Cc1ccc(C)c(N2CCN(C(=O)CN3C(=S)NC(C)(C)CC3C)CC2)c1 (stereo not given)	0.4%
88	CC(=O)Nc1nonc1NC(=O)CSC1=NCCS1	1.0%
89	Cc1oc(-c2ccccc2Cl)nc1CN1CCCCC1c1cccnc1 (stereo not given)	2.3%
90	Cc1c(O)ccc2c(CC(=O)N[C@@H](Cc3c[nH]c4ccccc34)C(=O)O)cc(=O)oc12	13.2%

New compounds follow.
item	Structure	VDR inhibitor
91	Cc1ccccc1NC(=O)C1CCC(C)(C(=O)O)C1(C)C (stereo not given)	16.6%
92	CCOC(=O)c1ccc(-n2c(C)nc3c(cnn3-c3ccccc3Cl)c2=O)cc1	9.2%
93	CN1CCN(c2nc3c(c(=O)[nH]c(=O)n3C)n2CCOc2ccccc2)CC1	-1.7%
94	Cc1ccccc1Cn1c(SCc2ccc(C(=O)N3CCCCC3)cc2)nc2ccncc21	-6.8%
95	C#CCOC(=O)Nc1cc(C)n(-c2ccccc2)n1	-0.2%
96	COc1cccc(N2CCN(C3OC(=O)c4ccccc43)CC2)c1 (stereo not given)	-1.3%
97	CCOC(=O)c1ccc2[nH]c3c(c2c1)CCCC3C(=O)OCC (stereo not given)	-0.3%
98	CC(C)(C)c1nn(-c2ccccc2)c2[nH]c(=O)c(CNCc3ccc4c(c3)OCO4)cc12	3.0%
99	Cc1ccc(NC(=O)CCC2CC(C)(C)OC2=O)cc1 (stereo not given)	18.2%
100	N#CCN1CCC(c2cc(-c3ccco3)n[nH]2)CC1	-22.3%
101	COc1ccc(CCNC(=O)CC2SC(=NCCc3ccccc3)NC2=O)cc1OC (stereo not given)	1.4%
102	CCOC(=O)N1CCN(C(=O)C2CCCN(Cc3nc(-c4ccc(Cl)cc4)oc3C)C2)CC1 (stereo not given)	4.8%
103	CC1=C(C(=O)Nc2cc(Cl)ccc2C)C(c2cccs2)n2ncnc2N1 (stereo not given)	2.3%
104	CC(=O)N1CCc2c(sc3c2c(=O)n(-c2ccccc2)c(=O)n3CC(=O)c2ccc(Cl)cc2)C1	-3.8%
105	O=C(NNS(=O)(=O)c1ccc(Cl)cc1)c1cc(-c2ccccc2)n[nH]1	-4.1%
106	COc1ccc(NC(=O)CN2C(=O)C(=O)c3ccccc32)c(OC)c1	-18.5%
107	Cc1cccc(C)c1OCC(N)C(C)C (stereo not given)	0.2%&-11.1%
108	Cc1cccc(NC(=O)C2CCCN(S(=O)(=O)c3ccc(-n4cnnn4)cc3)C2)c1 (stereo not given)	1.0%
109	CC(=O)Nc1ccc(C(=O)CSc2ncn(-c3ccccc3)n2)cc1	17.5%
110	CCOc1ccc(S(=O)(=O)Nc2nc3ccccc3nc2N2CCN(C)CC2)cc1	21.0%
111	Cc1cc(C(=O)N/N=C/c2ccccn2)c2ccccc2n1	-4.9%
112	O=C(O)/C(=C\c1ccc(Cl)cc1)c1ccc(F)cc1	-17.0%
113	COc1ccccc1N1CCN(/N=C/c2cc([N+](=O)[O-])ccc2Cl)CC1	-8.1%
114	CC(C)c1nnc(NC(=O)c2cnccn2)s1	9.3%
115	CCOC(=O)c1ccc2c(c1)C1C=CCC1C(C(=O)OCC)N2 (stereo not given)	-3.2%
116	COCCn1c(-c2ccc(OC)c(OC)c2)nc2ccccc21	4.9%
117	Cc1ccc(C)c(NC2=C(Cl)C(=O)OC2OC(C)C)c1 (stereo not given)	-23.6%
118	O=C(NN=C1CCCCCCC1)c1ccccn1	-6.2%
119	Cc1[nH]c2ccc(OC(F)(F)F)cc2c1CCN1C(=O)c2ccc(C(=O)O)cc2C1=O	-3.8%
120	CCOCCCNC(=O)C1CCCN(S(=O)(=O)c2ccc(-n3cnnn3)cc2)C1 (stereo not given)	-9.1%
121	Cc1ccc2c(CN3CCN(S(=O)(=O)c4ccccc4C(F)(F)F)CC3)cc(=O)oc2c1	0.7%
122	Cc1ccc(N2CCN(S(=O)(=O)c3ccc4c(c3)n(C)c(=O)c(=O)n4C)CC2C)cc1 (stereo not given)	-5.5%
123	Oc1ccc(C2=Nn3c(nnc3-c3ccco3)SC2)cc1O	-20.2%
